NPR1 antag – human Npr1 receptor antagonism. P16066. HEK293 hNpr1 GloSensor cGMP, ANP-stimulated luminescence. Potency, µM (titrated, usually from 46.3 µM), inactives show at the highest dose activity change, negative = inhibition, usual class: inhibitors. 76,000 compounds, 1.6% hits. AID 1347048; active = well fitted inhibition curve with a large enough effect; inconclusive = small, poorly fitted or top-dose-only effect; inactive = no such curve, though single readings can be large or run the other way;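 also: nearly all actives have a fitted effect of over 60% in size; nearly all hits also lower the signal before the agonist is added; a reference antagonist and vehicle were the controls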
Target sequence (P16066 whole entry, looked up): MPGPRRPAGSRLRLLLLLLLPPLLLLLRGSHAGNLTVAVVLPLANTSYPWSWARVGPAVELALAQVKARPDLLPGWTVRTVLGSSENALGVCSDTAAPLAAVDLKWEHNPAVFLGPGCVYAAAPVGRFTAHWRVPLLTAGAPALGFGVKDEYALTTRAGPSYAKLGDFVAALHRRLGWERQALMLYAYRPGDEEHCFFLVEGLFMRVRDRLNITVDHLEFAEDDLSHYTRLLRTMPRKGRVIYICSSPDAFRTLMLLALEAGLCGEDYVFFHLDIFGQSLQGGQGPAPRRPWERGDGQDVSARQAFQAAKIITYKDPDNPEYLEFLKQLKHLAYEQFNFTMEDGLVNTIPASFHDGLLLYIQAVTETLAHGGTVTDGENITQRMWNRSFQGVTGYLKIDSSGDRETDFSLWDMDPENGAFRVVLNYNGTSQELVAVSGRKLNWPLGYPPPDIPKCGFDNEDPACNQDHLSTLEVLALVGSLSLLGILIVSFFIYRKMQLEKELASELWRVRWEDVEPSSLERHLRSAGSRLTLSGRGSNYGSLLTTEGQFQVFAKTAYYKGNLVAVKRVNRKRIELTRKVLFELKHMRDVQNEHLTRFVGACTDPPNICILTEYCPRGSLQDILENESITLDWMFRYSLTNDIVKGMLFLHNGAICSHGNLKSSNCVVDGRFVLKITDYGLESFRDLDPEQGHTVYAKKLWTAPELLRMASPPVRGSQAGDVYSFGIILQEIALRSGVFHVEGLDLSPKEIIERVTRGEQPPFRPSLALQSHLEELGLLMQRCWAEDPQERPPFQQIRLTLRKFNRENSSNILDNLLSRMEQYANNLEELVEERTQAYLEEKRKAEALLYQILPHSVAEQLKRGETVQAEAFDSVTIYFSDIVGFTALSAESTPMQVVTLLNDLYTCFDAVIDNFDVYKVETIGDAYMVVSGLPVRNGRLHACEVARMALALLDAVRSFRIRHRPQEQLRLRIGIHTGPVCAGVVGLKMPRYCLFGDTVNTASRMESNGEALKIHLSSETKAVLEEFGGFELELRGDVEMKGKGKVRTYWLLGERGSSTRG
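HEK293 cells stably expressing human Npr1 and cGMP GloSensor pGS-40F, loaded 2 h with 2% GloSensor reagent, given compound 30 min at room temperature. Luminescence read before and 20 min after 0.1 nM hNppA.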
An asterisk follows results filed as active; ? = inconclusive; [ ] = remark or other dose. % is scaled to controls: 0 for no effect and ±100 for the full control effect; potency is read from the fitted curve at half-maximal effect. Only part of the results is shown; rates above refer to the full screens.

| SMILES | NPR1 antag |
| --- | --- |
| CCn1nccc1C(=O)N1CCC2(CC1)CC(N1CCN(c3ccccn3)CC1)CCO2 (centres undefined) | -6.4% |
| CN1C(=O)CS(=O)(=O)C12CCN(C(=O)c1ccc(F)c(F)c1)CC2 | -0.4% |
| CCCS(=O)(=O)NCCc1ncc(C)n1Cc1ccccc1 | 6.7% |
| COc1ccc(-c2nc(C)nc3c2CCN(Cc2ccnn2C)CC3)cc1 | -11.7% |
| N#CC1CCN(C(=O)c2nc3sccn3c2Br)CC1 | 8.9%[70.6 µM] |
| Cc1ncsc1CCNC(=O)c1ccc2nc(-c3ccccc3)cn2c1 | 0.0% |
| Cc1cc(CN2CCC3(CC2)CC(=O)c2ccc(Cl)cc2O3)no1 | -0.2% |
| COc1ccc(-c2cnc3[nH]cc(CC(=O)Nc4ccc(F)c(Cl)c4)c3c2)cc1 | -23.0%[70.6 µM] |
| O=C1CCN(C(=O)C2CCN(C(=O)C3CCOC3)CC2)CCCCCCN1 (centres undefined) | 3.7% |
| Cc1ccc(NC(=O)O[C@@H]2CO[C@H]3[C@@H]2OC[C@@H]3Nc2nccc(-c3ccccc3)n2)cc1 | ? |
| CCC(C)(C)C(=O)N1C[C@@H](CO)[C@H](c2ccncc2)C1 | -0.7% |
| CC(=O)Nc1cccc(C(=O)NCc2ccccc2-n2ccnc2C)c1 | -1.7% |
| COc1ccc(C(=O)N2C[C@@H](Oc3ccccc3)C[C@H]2C(=O)NC2CC2)cc1F | 1.1% |
| CC(C)c1ccc(C(=O)N2CCC(N3CC4CC(C3)[C@H]3CCCC(=O)N3C4)CC2)cc1 (some centres undefined) | -2.9% |
| Cc1ccnn1CCC(=O)N[C@@H]1COCC[C@H]1Oc1ccc(C(N)=O)cc1 | -1.1% |

Remaining list, next part:
| SMILES | NPR1 antag |
| --- | --- |
| CCOc1ccc2c(n1)CCN(C(=O)c1ccoc1)C2 | 4.8% |
| Cc1cc(C)c(CNC(=O)c2cc(-c3ccc(CO)cc3)cc3c2OCCN3C)c(=O)[nH]1 | 0.4%[70.6 µM] |
| Cc1nc(C)c(C(=O)N2CCCn3cc(-c4ccccc4F)nc32)s1 | 3.3% |
| Cc1ccc(C(=O)NCc2nnc3c(-c4nc(C5CC5)no4)cccn23)cc1C | -2.4% |
| O=C(N[C@@H]1CCC[C@@H]1C(=O)N1CCCC1)c1ccncc1 | 0.3% |
| COc1ccc(CNC(=O)CCC2CCCN(C(=O)CCN3CCCCO3)C2)c(OC)c1 (centres undefined) | 0.0% |
| CCc1ccc(CN2CCC(CNC(=O)C(C)(C)C)CC2)nc1 | -2.9% |
| CC(C)c1nncn1C1CCN(S(=O)(=O)c2cc(F)cc(F)c2)CC1 | -10.7% |
| COCCO[C@H]1C(=O)N(C2CCN(C(=O)c3cccnc3)CC2)[C@H]1c1ccncc1 | 1.4% |
| N#Cc1cccc(CN2C[C@H](O)C[C@H]2c2nc(-c3ccc(F)cc3)no2)c1 | -0.9%[70.6 µM] |
| CN(C)C[C@@H]1CN(Cc2ccccc2)C[C@H]1NC(=O)Cc1cccnc1 | 0.5% |
| O=C(c1ccc(OC2CCN(C(=O)C3CCCC3)CC2)nc1)N1CCOCC1 | 6.1% |
| Cc1cc(C)cc(C(=O)N2CCC(Cc3nc(-c4ccccc4)no3)CC2)c1 | ? |
| CCOC(=O)c1cccc(NC(=O)CCn2ccn3nc4c(c3c2=O)CCCC4)c1 | -2.9% |
| COC1C(=O)N(C2CCN(C(=O)c3cnccc3C)CC2)C12CCOCC2 (centres undefined) | 7.5% |

New compounds follow.
| SMILES | NPR1 antag |
| --- | --- |
| O=C(N[C@H](c1cccs1)C1CC(O)C1)c1n[nH]c2c1COCC2 (some centres undefined) | 7.8% |
| COc1ccccc1CC(=O)N1CCCc2ncc(C(=O)Nc3ccccc3C)cc21 | -2.6%[70.6 µM] |
| O=C1CCN(S(=O)(=O)c2ccccc2)CCCN(C(=O)CN2CCCC2=O)CCN1 | 4.5% |
| Cc1cccc(-c2ocnc2C(=O)N2CCC3(CC2)CC(O)CCO3)c1 (centres undefined) | -6.8% |
| CCOc1ccc(C(=O)NC2CCCN(c3cc(-c4ccc(OC)cc4)[nH]n3)C2)cc1OCC (centres undefined) | 1.4% |
| COCCn1c(C)cnc1CC1CCN(S(=O)(=O)c2cccc(OC)c2)C1 (centres undefined) | -3.0% |
| CC(=O)N1CCC(N[C@@H]2CO[C@H](CNC(=O)c3ccncc3)[C@H]2O)CC1 | 1.1%[70.6 µM] |
| COCC1CN(C(=O)CC2=CCCCC2)CC12CCNCC2 (centres undefined) | -4.2% |
| CCn1ccc(C(=O)N2CCc3nnc([C@@H]4C[C@@H](O)CN4C)n3CC2)n1 | 2.4% |
| CCc1nnc(N2CCCC3(CCC(=O)N(Cc4ccccc4)C3)C2)s1 (centres undefined) | -0.6% |
| Cc1cccc(Cn2nc(-c3cccnc3)nc2C2(C(N)=O)CC2)c1 | -0.7% |
| Cc1[nH]ncc1CNC(=O)CCC[C@H]1NC[C@@H]2C[C@H]1CN(Cc1ccccc1)C2 | -8.7% |
| Cc1nn(-c2ccc(F)cc2)c(Oc2ccccc2)c1CCC(=O)NCC1CC1 | ? |
| NC(=O)C1(C(=O)N2CCC(n3nccc3NC(=O)c3ccccc3)CC2)CC1 | -2.5% |
| CCN(Cc1ccccc1)C(=O)[C@@]12CCCC[C@H]1N(CCOC)C(=O)CC2 | -11.8% |

Four entries from above in a different format.
SMILES: Cc1cccc(Cn2nc(-c3cccnc3)nc2C2(C(N)=O)CC2)c1
- NPR1 antag: -0.7%

SMILES: Cc1[nH]ncc1CNC(=O)CCC[C@H]1NC[C@@H]2C[C@H]1CN(Cc1ccccc1)C2
- NPR1 antag: -8.7%

SMILES: Cc1nn(-c2ccc(F)cc2)c(Oc2ccccc2)c1CCC(=O)NCC1CC1
- NPR1 antag: ?

SMILES: NC(=O)C1(C(=O)N2CCC(n3nccc3NC(=O)c3ccccc3)CC2)CC1
- NPR1 antag: -2.5%

Next results follow:
| SMILES | NPR1 antag |
| --- | --- |
| CC1Oc2ccc(NC(=O)Nc3ccccc3)cc2CN(Cc2ccccc2)C1=O (centres undefined) | ? |
| O=C1c2cc(N3CCOCC3)nc(-c3ccc(F)cc3)c2CN1CC1CC1 | -20.5%[70.6 µM] |
| CN1C[C@H](O)C[C@H]1c1nnc2n1CCN(C(=O)C1CCCCC1)CC2 | 4.8% |
| CCN(CC)C(=O)C1CCCN(Cc2ccc3c(c2)CN(Cc2cc(OC)cc(OC)c2)CCO3)C1 (centres undefined) | 2.7% |
| Cc1ccc2c(n1)N(C)[C@H](CO)CCN(Cc1cccc(Cl)c1)C2 | -10.4%[70.6 µM] |
| O=C(c1cc(CN2CCOCC2)on1)N1CCC2(CC1)NCCc1c2[nH]c2ccccc12 | 7.8% |
| CCNC(=O)N[C@H]1[C@H](O)[C@@H](Oc2ccccc2)[C@@H]2OC[C@H]1O2 | 4.2%[70.6 µM] |
| COc1ccccc1C(=O)N1CCCC(n2cc(-c3noc(C)n3)nn2)C1 (centres undefined) | 0.5% |
| Cc1c(CC(=O)NC2CCOC2=O)c2c(n1Cc1ccccc1F)CCCC2=O (centres undefined) | -11.9% |
| CN(C)C[C@@H]1CN(c2ncccn2)C[C@H]1NC(=O)COc1ccc(F)cc1 | -1.7% |
| CN(CCc1cn[nH]c1)c1ccc(-c2nc(-c3ccccc3F)no2)cn1 | 8.91µM* |
| Cn1cc(CN2CCCC23CCN(c2ccnc4c(C(F)(F)F)cccc24)CC3)cn1 | -3.1% |
| CCCNC(=O)N1CCCCC1c1noc(COc2ccc(F)cc2)n1 (centres undefined) | 0.9% |
| Cn1c(=O)n([C@H]2CCCN(C(=O)c3ccn[nH]3)C2)c2ncccc21 | 1.1% |
| Cn1ccc(NC(=O)C2(C)CCc3cnc(NCc4ccccc4)nc32)n1 (centres undefined) | -5.3%[70.6 µM] |

Next part.
| SMILES | NPR1 antag |
| --- | --- |
| COCC1CN(C(=O)Cc2ccccc2F)CC12CCNCC2 (centres undefined) | 0.2% |
| COc1ccc(Cl)cc1NC(=O)CCC1CCCN(C(=O)Cn2cccn2)C1 (centres undefined) | 2.2% |
| CCn1cc(CN(C)CC(=O)N2CCCCCC2)ccc1=O | -6.6% |
| CN1CCc2nc(N3CCN(CC4CCCCC4)CC3)sc2C1 | -0.1% |
| COc1ccc(C2Cn3nnc(C(=O)N4CCC(C(=O)NC5CC5)CC4)c3CO2)cc1 (centres undefined) | -1.1% |
| CCCN(CC1CCOC1)C(=O)Nc1ccc(F)c(Cl)c1 (centres undefined) | 0.9% |
| Cc1ccc(CNC(=O)C2Cn3cccc3C(=O)N2Cc2cccnc2)o1 (centres undefined) | 1.9% |
| COc1ccccc1N1CCN(C(=O)Cn2cccc2-c2nc(-c3ccc(F)cc3)no2)CC1 | -4.0% |
| Cc1cc2occ(CC(=O)N3CCCn4nc(CO)cc4C3)c2cc1Cl | -1.3% |
| Cc1noc(-c2cccc(OC3CN(C(=O)Nc4cccc(F)c4)C3)c2)n1 | -15.9% |
| CCn1cc(CN2CCCCCNC(=O)[C@@H]3CCC[C@@H]32)c(C)n1 | 3.9% |
| CCOC(=O)N1CCC(NC2CC(=O)N(CCc3ccc(OC)cc3)C2)CC1 (centres undefined) | 0.0% |
| Cc1cc(Cl)ccc1S(=O)(=O)N1CC(c2nc(-c3ccncc3)no2)C1 | 12.6µM* |
| COc1cccc(-c2cc3c(=O)n(CCNC(=O)c4cc5ccccc5[nH]4)ccn3n2)c1 | ? |
| COc1ccc2nc3n(c2c1)[C@@H](CNCC(C)(C)C)COC3 | 2.8%[70.6 µM] |

(next part)
| SMILES | NPR1 antag |
| --- | --- |
| C[C@H]1[C@@H]2[C@@H](O)C([C@H](C)C(=O)NCc3ccco3)CC[C@@]2(C)CC[C@@H]1NC(=O)CC(C)(C)C (some centres undefined) | 1.7% |
| CN(CC1(C)CCOCC1)C(=O)NC(C)(C)C | -2.7% |
| Cc1nc([C@H]2CCN(Cc3ccoc3)C[C@H]2NC(=O)C2CCOCC2)n[nH]1 | 2.7% |
| Cc1noc2c(-c3cccnc3NC(C)C)cc(-c3ccccc3)nc12 | -8.2%[70.6 µM] |
| CC(=O)N1CCCC(c2nc(CCOCC3CC3)no2)C1 (centres undefined) | 6.1% |
| Cc1noc(-c2ccc(OC(F)(F)F)cc2)c1C(=O)NCCCOC(C)C | 2.6% |
| CCNC(=O)N1CCOc2ccc(CCC(=O)NCCOc3ccccc3OC)cc2C1 | 0.8% |
| CN1C(=O)CCC2(CNC(=O)c3ccc(Cn4ccnc4)o3)CCC=C12 (centres undefined) | -11.5% |
| O=C(CC1CCCCC1)NC(Cc1ccccc1)C(=O)N1CCN(c2ccccn2)CC1 (centres undefined) | -2.6% |
| CCOc1ccccc1CNC(=O)c1c(C)noc1-c1cccs1 | -6.6% |
| O=C(NCc1cccc(F)c1)N1CCC(Oc2ncccc2C(=O)N2CCOCC2)C1 (centres undefined) | 3.5% |
| COCc1nc2nc(-c3ccccc3)c(-c3ccc(OC)cc3)cc2n1C | -21.6%[70.6 µM] |
| CCN(CCOc1ccc(OC)cc1)C(=O)c1cc(S(N)(=O)=O)ccc1C | 2.3% |
| CC1(C)[C@H](Cc2cc(CC3CCCCC3)on2)C[C@@H]1NC(=O)C1CCCC1 | ? |
| CN(C)[C@@H]1CNCC[C@@H]1CO | 2.6% |

Among those listed so far, these contain a CF3 group.
| SMILES | NPR1 antag |
| --- | --- |
| Cn1cc(CN2CCCC23CCN(c2ccnc4c(C(F)(F)F)cccc24)CC3)cn1 | -3.1% |
| Cc1noc(-c2ccc(OC(F)(F)F)cc2)c1C(=O)NCCCOC(C)C | 2.6% |

Continuation:
| SMILES | NPR1 antag |
| --- | --- |
| N#Cc1cccc(CN2C[C@@H](CO)[C@H](NC(=O)c3ccccc3)C2)c1 | -1.8% |
| CN(C)CCN1CCC(N2CCN(C(=O)c3ccnn3C)CC2)C1=O (centres undefined) | -0.9% |
| COc1ccc2[nH]c3c(c2c1)CCNC31CCN(C(=O)Cn2ccnc2)CC1 | 8.2% |
| CCn1cc(CN2CCN(C(=O)c3ccoc3)CC2)ccc1=O | -1.8% |
| CC(=O)N1CCC(C(=O)NCCc2ncc(C)n2C2CCC2)CC1 | 4.6% |
| CCc1nncn1C1CCN(C(=O)c2cccc(Cl)c2)CC1 | 10.8% |
| CC(C)CNC(=O)CCC[C@@H]1[C@H]2CCCN3CCC[C@@H](CN1C(=O)c1cccnc1)[C@@H]23 | -1.7% |
| O=C(c1cccc(F)c1)N1CCC[C@H]1c1nc(-c2ccccc2)no1 | -4.2% |
| COc1cccc(-c2cc(C3CCN(C(=O)Nc4ccc(F)cc4)CC3)[nH]n2)c1 | 1.2% |
| Cc1nn2c(c1-c1ccccc1OCc1ccccc1)N(Cc1ccc(OCC(=O)O)cc1)CCC2 | 0.0% |
| CCOCc1nc(C2CCCN(C(=O)Cc3c(C)noc3C)C2)no1 (centres undefined) | 10.9% |
| COc1cc(OC)cc(-c2onc(C)c2C(=O)NCCCCc2ccccc2)c1 | -1.0% |
| CCC(=O)N1CCN(C(=O)N2CC3CC(C2)[C@H]2CCCC(=O)N2C3)CC1 (some centres undefined) | 0.8% |
| O=C(N[C@@H](Cn1cc(Cl)c(=O)[nH]c1=O)C(=O)O)C1CCCC1 | 5.2%[70.6 µM] |
| CC(C)CC(C)NC(=O)c1noc(-c2ccc[nH]c2=O)n1 (centres undefined) | -2.6% |
| O=C(Cc1ccsc1)N1CCCCCC1c1nc(-c2ccncc2)no1 (centres undefined) | 5.1% |
| COc1ccc(CC(=O)N2CC[C@H]3CC(=O)N(CCN4CCOCC4)CC[C@H]3C2)cc1 | 2.6%[70.6 µM] |
